From PubChem
Sa RN4220 lethal: growth inhibition of S. aureus RN4220, primary screen, OD600; AID 1259311, 2017; 16 h; 330,000 compounds, 0.33% hits; inhibition, % (no concentration beside the values);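 active = z-score of -3 or lower and OD600 up to 0.18 on both plates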;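 also: plate controls were untreated cells for no effect and reference antibiotic for full effect; stock transfer was 100 nL into about 80 µL; one replicate is shown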
ugtP null kill: growth inhibition of ugtP-null S. aureus, primary screen, RN4220 ugtP deletion, OD600 | 16 h; some inactives read as strong as hits | 330,000 compounds, 0.54% hits | growth inhibition, % (concentration not given with the values);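 active = z-score under -3 and OD600 up to 0.15 on both plates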;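 also: plate controls were untreated wells for no effect and antibiotic for full effect; wells of about 80 µL received 100 nL stock; the first replicate is given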
BJeLR viability: MLPCN primary cell-based screen for lethality selective to Ras in HRASV12 cells; inhibition, % (test concentration not listed); BJeLR (HRASV12) viability, CellTiter-Glo ATP luminescence, 48 h; reference of the scale not given here; 300,000 compounds, 0.17% hits; AID 1554, 2009;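 active = replicate mean above 50%; inconclusive = above 50% but judged a plate artefact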;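 also: 50 nL library stock added to about 25 µL; numbers are from one replicate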
Autofluor counter: flagged as autofluorescent in microsphere protease counterscreen; AID 624483; compound autofluorescence counterscreen, microsphere flow cytometry; stronger effect = higher value; fluorescence intensity (concentration not given with the values); 360,000 compounds, 3.1% hits;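 active = at least 3 SD above the mean of all compounds, about 16000 in these data; inconclusive = too few beads counted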;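 also: 100 nL of 1 mM stock went into each well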
PrP UTR inh: inhibition of PrP 5' UTR reporter expression | cell-based PrP 5' UTR mRNA reporter, plate reader | inhibition, % (concentration not given with the values) | 340,000 compounds, 0.35% hits;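 active = every replicate at 50% or more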;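 also: 0 = median of the neutral control wells; tested in H4 reporter cells; numbers are from one replicate; inactives centre near -14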
Mtb hypoxia rep: PubChem AID 1159583; M. tuberculosis hypoxia-regulated fluorescent reporter, fluorescence; fluorescence inhibition, % (test concentration not listed); 300,000 compounds, 0.1% hits;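 active = 35 to 45% if threefold the growth effect, above 45% if 1.5-fold the growth effect; inactive = the rest, general growth blockers included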;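 also: wells of about 50 µL received 100 nL stock; 0% = vehicle wells and 100% = reference inhibitor wells; whole bacteria with a GFP reporter of the hypoxia response; strong numbers were not always called active; many hits fall short of the cut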
Mtb hypoxia rep growth: also measured in Mtb hypoxia rep; calls as there; growth inhibition, %; measured here: M. tuberculosis growth (absorbance);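 0% = vehicle and 100% = reference antibiotic; read after six days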
Active calls of the source: *; ? = inconclusive; nt = not tested or not shown.

nr	SMILES	Sa RN4220 lethal	ugtP null kill	BJeLR viability	Autofluor counter	PrP UTR inh	Mtb hypoxia rep	Mtb hypoxia rep growth
1	CC(C)c1ccc(C2NC(=O)NC3=C2CCc2ccccc23)cc1 (stereo not given)	1.3	48	21	5672	-7	6	0
2	CN(CC(=O)Nc1ccc(N2CCOCC2)cc1)C(=O)COc1ccccc1F	1.8	-1	0	4083	-12	1	-7
3	O=C(/C=C/NNC(=O)c1cccc(Br)c1)c1ccccc1	nt	nt	6	3587	-7	nt	nt
4	CCn1cc(C(=O)Nc2ncccc2O)c(=O)c2cc(F)c(N3CCN(C(=O)c4ccco4)CC3)cc21	27	36	5	5293	0	-5	-2
5	COc1ccc(NC(=S)NNC(=O)COc2ccc(Cl)cc2Cl)cc1	5.0	-9	5	1880	-23	2	8
6	O=C(NCc1ccco1)c1cnn2c(C(F)(F)F)cc(-c3ccccc3)nc12	-2.1	-4	-4	10313	-16	-9	3
7	O=C1Nc2ccccc2/C1=N\N=C\C1=C(N2CCOCC2)C(=C\c2ccccc2)/CC1	nt	nt	12	8783	-12	nt	nt
8	O=C(c1ccco1)N1CCN(c2ncnc3scc(-c4cccs4)c23)CC1	1.2	3	-2	11037	0	7	5
9	O=C(CSc1nccn1-c1cccc(F)c1)NC1CCCC1	-1.7	-4	nt	?	2	-2	1
10	O=C1c2ccccc2C(Nc2cccnc2)N1Cc1ccc2c(c1)OCO2 (stereo not given)	-13	-5	9	6577	-10	-1	2
11	O=C(NCc1ccc2c(c1)OCO2)C1CC(=O)N(C2CCCC2)C1 (stereo not given)	1.4	6	7	6890	-16	7	-5
12	Cc1ccc(S(=O)(=O)N2CCCCC2)cc1NS(=O)(=O)c1ccccc1F	13	1	nt	3968	-2	18	3
13	CCOc1ccc(NC(=S)NCCCN2CCOCC2)cc1	5.8	3	-3	4255	-13	-2	12
14	CC(=O)c1c(C)[nH]c(C(=O)/C(C#N)=C/c2cccc(C)c2)c1C	1.7	-5	-5	4812	9	0	0
15	CCc1ccc(CNC(=O)c2ccc3c(c2)NC(=O)C(N2CCOCC2)S3)cc1 (stereo not given)	-2.9	-1	-14	4382	-15	-2	5
16	Cc1ccc(S(=O)(=O)N2CCC(C(=O)OCC(=O)NC(C)c3ccc(F)cc3)CC2)cc1C (stereo not given)	-0.6	-7	nt	3854	-11	7	8
17	COc1ccc(Nc2oc(COc3ccccc3OC)nc2C#N)cc1	8.3	6	0	2557	53	3	2
18	Cc1ccc(-c2csc(N3CCN(c4cc5c(cc4Cl)nc(C(C)N)n5CCCO)CC3)n2)cc1 (stereo not given)	-3.2	-14	7	2994	-3	10	6
19	CCCNC(=O)N[C@@H](Cc1ccccc1)C(=O)OC	1.1	3	15	22925*	-12	-1	0
20	COc1cc(OC)cc(N(C(=O)CNC(=O)c2ccco2)C(C(=O)NCC2CCCO2)c2ccccc2)c1 (stereo not given)	5.8	10	3	5555	-3	0	-1
21	OCC[C@@H]1C[C@@H](O)[C@H](O)[C@@]2(CCc3ccccc3O2)O1	nt	nt	8	4077	-22	nt	nt
22	COc1ccc(CCN2CC(C(=O)N3CCC(OC)CC3)CCC2=O)cc1 (stereo not given)	1.3	3	2	5372	-6	1	-2
23	Cc1ccc(C(=O)NCCNS(=O)(=O)c2ccccc2)cc1	4.6	9	-5	3246	-7	6	7
24	COC(=O)c1ccc(C(=O)Nc2ccc(C(C)C)cc2N)cc1	0.5	-2	-2	3365	-25	1	5
25	CCc1nc(Nc2cccc(F)c2)c2oc3ccccc3c2n1	6.3	-11	3	3159	5	8	6
26	CC(C)(C)C(=O)O/N=C(\N)c1c(Cl)cccc1Cl	nt	nt	10	5007	-3	nt	nt
27	CC(=O)Nc1ccc(C2=CC(=O)C[C@H](c3ccc4c(c3)OCO4)C2)cc1	0.6	4	nt	5872	-40	12	7
28	COc1ccc(OC)c(NC(=O)COc2ccc(S(=O)(=O)N3CCCC3)cc2)c1	-1.8	-2	6	3484	-30	16	12
29	COc1cc(C2NC(=O)NC(O)(C(F)(F)F)C2C(=O)c2cccs2)ccc1O (stereo not given)	6.2	12	-6	9830	-21	2	2
30	CCC1CC(/C(C)=N/NC(N)=O)OC1=O (stereo not given)	nt	nt	-1	2238	-86	nt	nt
31	Cc1ccc(NC(=O)c2cnc(SCC(=O)NCC3CCCO3)n(C)c2=O)cc1 (stereo not given)	-0.6	3	2	6236	-27	8	7
32	CCCCCCSc1ccc(C2N[C@@](Cc3ccccc3)(C(=O)OC)C3C(=O)N(C)C(=O)C23)cc1 (stereo not given in full)	1.1	-15	nt	nt	nt	18	9
33	Cc1[nH]c2ccc(C(=O)N3CCCCC3)cc2c1C	1.4	7	-15	4480	-93	0	15
34	CCn1cc(C(=O)NCCCN2CCC(C)CC2)c(=O)c2cc(S(=O)(=O)N3CCCC3)ccc21	3.2	-4	-1	9332	-33	-5	4
35	O=C(NCCc1ccc(Cl)cc1)c1cccs1	-0.5	-5	9	4195	-26	-1	8
36	CC(C)c1ccc(N=C(N)N=C(N)N)cc1	0.2	3	2	3174	-16	1	5
37	O=C1C2CC=C(Cl)CC2C(=O)N1CCC[n+]1ccccc1 (stereo not given)	3.8	6	-5	19255*	-1	3	7
38	Cc1ccc(C)c(S(=O)(=O)N2CCN(CC(=O)NC(=O)NCc3ccccc3)CC2)c1	1.4	-1	-11	3925	-44	1	1
39	COc1ccccc1C(=O)NCCOc1ccc(C)c(C)c1	0.2	8	9	2801	-28	5	5
40	COc1ccccc1NC(=O)C1=C(C)Nc2nc(-c3ccc(N(C)C)cc3)nn2C1c1ccncc1 (stereo not given)	8.6	-10	nt	9703	-9	-7	4
41	Cc1ccc(/C=C/C2=NN(Cc3ccc(Cl)c(Cl)c3)C(=O)CC2)cc1	-14	-4	-6	2717	-6	nt	nt
42	O=S(=O)(c1ccc2oc(=S)[nH]c2c1)N1CCOCC1	6.5	5	nt	3532	1	11	-3
43	Cc1ccc(OCC(=O)NC2CC(C)(C)NC(C)(C)C2)c(C)c1	nt	nt	4	4110	-17	nt	nt
44	CCC(=O)Nc1ccc(NC(=O)c2cccc3ccccc23)cc1	-0.9	3	1	3805	-9	6	5
45	O=C(NCCNC(=O)c1ccc(Br)o1)c1ccc(Br)o1	2.3	2	4	5205	-24	13	11
46	Cc1cccc(NC(=O)CCc2ccccc2)c1	11	4	6	3988	-27	13	12
47	C=CCNC(=O)NC(=O)COn1nnc2ccc(S(=O)(=O)N(C)C)cc21	6.1	7	-8	2420	-44	6	4
48	COC(=O)c1oc2ccc(Br)cc2c1NC(C)=O	-9.7	-14	-4	5369	-21	4	11
49	CC(C)(C)OC(=O)NCCCCC(NC(=O)c1[nH]cnc1C(=O)NC(Cc1ccccc1)C(=O)OC(C)(C)C)C(=O)OC(C)(C)C (stereo not given)	0.8	-14	nt	nt	nt	10	13
50	COc1ccc2[nH]c(C(=O)N(Cc3ccccn3)Cc3ccccn3)cc2c1	2.5	1	-6	5951	-22	3	12

Complete entries from above. Order of screens: Sa RN4220 lethal	ugtP null kill	BJeLR viability	Autofluor counter	PrP UTR inh	Mtb hypoxia rep	Mtb hypoxia rep growth
Listed for CC(C)(C)C(=O)O/N=C(\N)c1c(Cl)cccc1Cl → nt	nt	10	5007	-3	nt	nt
Listed for COc1ccc(OC)c(NC(=O)COc2ccc(S(=O)(=O)N3CCCC3)cc2)c1 → -1.8	-2	6	3484	-30	16	12
Listed for Cc1ccc(C(=O)NCCNS(=O)(=O)c2ccccc2)cc1 → 4.6	9	-5	3246	-7	6	7

Further results
nr	SMILES	Sa RN4220 lethal	ugtP null kill	BJeLR viability	Autofluor counter	PrP UTR inh	Mtb hypoxia rep	Mtb hypoxia rep growth
51	O=C(/C=C/c1ccc(OCc2ccccc2)c(OCc2ccccc2)c1)c1cccnc1	15	-8	-1	1983	-17	5	10
52	Cc1cnc(C(=O)OCC(=O)N2C(C)CCCC2C)cn1 (stereo not given)	5.0	4	nt	3614	-10	2	0
53	COc1cccc(CC(=O)Nc2ccc(S(=O)(=O)N3CCCCC3)cc2)c1	3.7	2	nt	2914	-19	4	7
54	CC1(C)CC(=O)c2sc(NC(=O)Cc3cccs3)nc2C1	-0.9	0	4	7288	-14	-3	-5
55	CCc1c(C(=O)NNC(=S)NCCc2ccccc2)csc1C	4.2	-4	3	2346	4	9	5
56	CCN1C(=Cc2ccc3ccccc3[n+]2CC)Sc2cc(C)ccc21	101*	100*	nt	nt	nt	nt	nt
57	CCOC(=O)c1ccc(NC(=O)NCc2ccn(CC)n2)cc1	4.6	1	5	11568	-28	-4	4
58	CC1CCN(c2ccccc2NC(=O)c2ccc(F)cc2)CC1	2.8	3	-3	8860	-27	12	6
59	Cc1nc(NC(N)=S)sc1C(=O)Nc1ccccc1	3.5	-4	-4	8543	-18	6	12
60	O=C(N/N=C\c1cccc([N+](=O)[O-])c1O)C1COc2ccccc2O1 (stereo not given)	nt	nt	13	1872	-12	nt	nt
61	CNc1nc(-c2ccc(OC)cc2)c(-c2ccc(OC)cc2)s1	17	3	-3	3648	-6	2	-4
62	Cc1cc(C)nc(SCc2cc(=O)c(OC(=O)c3ccc(S(=O)(=O)N(C)C)cc3)co2)n1	7.8	11	-16	2125	-39	-9	-1
63	CC1CC(=O)c2cn3c(nc2C1)nc1ccccc13 (stereo not given)	0.3	0	nt	8448	nt	3	-1
64	Fc1ccc(-c2nc3ccccc3c3nc4ccccc4n23)cc1	2.6	-15	16	2094	-2	nt	nt
65	CCCCn1c(SCC(=O)Nc2nnc(C)s2)nnc1-c1ccncc1	-2.1	2	-3	4379	-16	-4	8
66	Cc1cc(C(=O)OCC(=O)Nc2c(F)cccc2F)c(C)n1C1CC1	1.5	5	nt	4806	-8	8	-1
67	COc1ccc(N2C(=O)[C@H]3CCC=C[C@H]3[C@@H]2c2ccccc2Br)cc1	9.2	-9	nt	3847	-14	4	-2
68	Cc1c(/C=N/NC(=O)c2cccnc2)c2ccccc2n1Cc1ccccc1	nt	nt	3	24760*	-5	nt	nt
69	NS(=O)(=O)CCCc1ccccc1	0.2	-4	3	4530	-16	-9	5
70	C1CCC2(CC1)C1=C(CCCC1)Nc1nnnn12	2.0	4	-7	24281*	-10	-5	15
71	CC(=NCCCN(C)C)C1=C(O)c2ccccc2C1=O	6.8	2	1	2293	-6	9	7
72	COc1ccc(-c2nnc3sc(-c4ccccc4OC)nn23)cc1	6.2	-14	-5	9350	-20	2	3
73	Cc1cc2nc(-c3cccnc3SCC(=O)NC3CC3)[nH]c2cc1C	3.0	1	5	nt	nt	3	2
74	O=C(NCc1ccco1)C(c1cccnc1)N(C(=O)Cn1nnc2ccccc21)c1ccc(F)cc1 (stereo not given)	1.5	2	0	4927	-5	nt	nt
75	CC1=NNC(=O)C1CC(=O)N/N=C/c1cccs1 (stereo not given)	nt	nt	-1	3513	-9	nt	nt
76	N#Cc1ccc(CSc2ncnc3c2cnn3Cc2ccccc2)cc1	-7.6	42	9	4551	3	nt	nt
77	NC(=O)c1nc(-c2ccco2)nc2c1[nH]c(=O)n2-c1ccc(Cl)c(Cl)c1	4.9	7	2	3335	-22	12	13
78	CCCCCCn1c(N(CC)CC)nc2c1c(=O)[nH]c(=O)n2C	7.6	-11	15	3399	-17	7	6
79	CN(CCC#N)S(=O)(=O)c1ccc2c(c1)c(=O)n(C)c(=O)n2C	1.9	6	-7	4644	-25	nt	nt
80	O=C(Nc1ccc2c(c1)OCCO2)c1cccc(Br)c1	1.9	6	6	3855	-85	8	6
81	O=C(CCCCCN1C(=O)c2ccccc2C1=O)Nc1ccccc1F	6.4	12	6	5604	-6	6	-11
82	CCn1nc(C(=O)Nc2ccc(Cl)c(S(=O)(=O)N3CCOCC3)c2)c2ccccc2c1=O	1.0	6	nt	?	-24	7	3
83	CC(C)c1ccc(-c2nn(-c3ccccc3)cc2C(=O)NCC2CCCO2)cc1 (stereo not given)	2.7	-2	3	?	-18	3	2
84	CC(=O)c1cccc(NC2c3ncccc3C(=O)N2Cc2ccco2)c1 (stereo not given)	6.0	7	-4	16040	7	8	6
85	Clc1ccc(CN2CCNCC2)cc1	4.8	4	-5	3038	-12	16	8
86	Cc1cc(C)c(S(=O)(=O)NCC2CCC(C(=O)NCc3ccccn3)CC2)c(C)c1 (stereo not given)	8.0	0	2	4258	-6	6	0
